Screening results from PubChem.
MLL AF4-AF9 inh: MLL-AF4/AF9 protein interaction inhibition; inhibition, % at 10 µM; 350,000 compounds, 0.47% hits; AlphaScreen, biotin-AF4 peptide binding to FLAG-AF9; P42568;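 active means every replicate reaching a set inhibition limit, whatever the replicate mean, cut at about 25% in these data; inconclusive means mean inhibition reaches that limit but some replicates miss it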;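 further: 0% = plate neutral control median and 100% = total signal loss; the record names both 10 and 1 µM as test concentration; the first replicate is given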
Target sequence (P42568 whole entry, looked up): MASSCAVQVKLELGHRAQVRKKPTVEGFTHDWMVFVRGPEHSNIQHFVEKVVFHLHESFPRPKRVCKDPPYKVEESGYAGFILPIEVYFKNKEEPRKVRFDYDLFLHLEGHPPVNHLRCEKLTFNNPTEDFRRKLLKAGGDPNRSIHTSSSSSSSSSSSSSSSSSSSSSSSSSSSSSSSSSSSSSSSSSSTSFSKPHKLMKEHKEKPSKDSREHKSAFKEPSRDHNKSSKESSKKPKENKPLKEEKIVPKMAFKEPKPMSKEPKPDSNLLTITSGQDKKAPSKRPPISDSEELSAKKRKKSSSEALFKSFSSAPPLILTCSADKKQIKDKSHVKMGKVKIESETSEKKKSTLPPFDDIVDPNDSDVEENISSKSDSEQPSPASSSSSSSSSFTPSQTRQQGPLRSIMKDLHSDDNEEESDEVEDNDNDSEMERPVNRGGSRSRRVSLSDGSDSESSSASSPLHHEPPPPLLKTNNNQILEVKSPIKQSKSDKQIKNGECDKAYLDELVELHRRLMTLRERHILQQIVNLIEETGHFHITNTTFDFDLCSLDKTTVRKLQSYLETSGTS
FGF22 binding: binders of recombinant human FGF22 by thermal shift; Q9HCT0; SYPRO orange fluorescence; percent of sucrose octasulfate shift, DMSO zero; calls only at 9.99 µM; 340,000 compounds, 1.5% hits; AID 651658;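 active means melting point raised past a set limit in the mean and every replicate; inconclusive means no clear call; three in four hits are not shown here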
Target sequence (Q9HCT0 whole entry, looked up): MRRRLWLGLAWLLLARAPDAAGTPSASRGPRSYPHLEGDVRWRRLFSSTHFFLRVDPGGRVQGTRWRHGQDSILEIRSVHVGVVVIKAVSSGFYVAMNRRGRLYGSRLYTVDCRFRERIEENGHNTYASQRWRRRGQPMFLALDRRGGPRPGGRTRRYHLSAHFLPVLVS
* marks the source's active call; other numbers are inactive results; i = inactive; ? = inconclusive. This is a subset; count on the stated rates, not on these rows.

SMILES	MLL AF4-AF9 inh	FGF22 binding
O=C(C[C@@H]1C[C@@H]2c3cc(NS(=O)(=O)c4ccccc4)ccc3O[C@@H]2[C@@H](CO)O1)NC1CCCCC1	2.0	i
N#C[C@@H]1[C@@H](c2ccc(-c3cccc(F)c3)cc2)[C@H](CO)N1C(=O)c1cccnc1	0.7	i
Cc1noc(C)c1S(=O)(=O)Nc1ccc2c(c1)CC(=O)N([C@H](C)CO)C[C@H](C)[C@@H](CN(C)C(=O)NC(C)C)O2	0.2	i
O=C(C[C@H]1CC[C@H]2[C@@H](COC[C@H](O)CN2S(=O)(=O)c2ccc(Cl)cc2)O1)NCCN1CCCC1	-12	i
CN(C)C(=O)[C@]1(Cc2ccccc2N=[N+]=[N-])N=C(c2ccc(OCCCO)cc2)O[C@@H]1c1ccccc1	5.6	i
CC(C)NC(=O)N[C@@H]1CC[C@H](CCNC(=O)C2CCCC2)O[C@H]1CO	-0.7	i
C[C@H](CO)N1C[C@H](C)[C@H](CN(C)C(=O)C2CCCCC2)OCCCC[C@H](C)Oc2ccc(NC(=O)Nc3ccc(F)cc3)cc2C1=O	-2.3	i
C[C@@H]1CN([C@H](C)CO)S(=O)(=O)c2ccc(C#CC3CC3)cc2O[C@H]1CN(C)Cc1ccccc1F	1.7	i
CO[C@@H]1CN(C)C(=O)c2ccc(NC(=O)Nc3c(C)noc3C)cc2OC[C@@H](C)NC[C@@H]1C	-3.2	i
COc1cccc(S(=O)(=O)Nc2ccc3c(c2)OC[C@@H](C)NC[C@H](C)[C@@H](OC)CN(C)C3=O)c1	-0.5	i
CN(C)CCCNC(=O)C[C@H]1CC[C@@H]2[C@H](COC[C@@H](O)CN2C(=O)c2ccncc2)O1	-1.7	i
CN(C)C(=O)c1cccc(-c2ccc3c(c2)[C@H]2[C@H](CCN2Cc2nccs2)[C@@H](CO)N3)c1	-3.4	i
Cc1ccc(S(=O)(=O)Nc2ccc3c(c2)CC(=O)N([C@@H](C)CO)C[C@@H](C)[C@H](CN(C)C(=O)Nc2ccc(F)cc2)O3)cc1	-0.9	i
Cc1noc(C)c1S(=O)(=O)Nc1ccc2c(c1)C(=O)N([C@H](C)CO)C[C@H](C)[C@@H](CN(C)Cc1ccc(C(=O)O)cc1)OCCCC[C@@H](C)O2	-13	i
O=C(Nc1ccccc1)N1CCCCN2[C@@H](CO)[C@H](c3ccc(C#Cc4ccccn4)cc3)[C@@H]2C1	1.8	i
CCCC#Cc1ccc2c(c1)O[C@H](CN(C)Cc1ccccn1)[C@@H](C)CN([C@@H](C)CO)S2(=O)=O	1.5	i
C/C=C/c1ccc2c(c1)O[C@@H](CN(C)C(=O)Nc1ccc(C(F)(F)F)cc1)[C@H](C)CN([C@H](C)CO)S2(=O)=O	2.9	i
C[C@@H]1CCCCO[C@H](CN(C)C(=O)CCC(F)(F)F)[C@H](C)CN([C@@H](C)CO)C(=O)c2cc(NC(=O)CCC(F)(F)F)ccc2O1	-3.3	i
C/C=C/c1ccc([C@H]2[C@@H](CO)N(Cc3cccc(F)c3)C23CN(C(=O)CC)C3)cc1	3.0	i
CN1C(=O)c2cc(NC(=O)c3cccs3)ccc2OC[C@H]2O[C@H](CC(=O)N3CCCCC3)CC[C@H]21	-0.9	i
C[C@@H]1CN([C@@H](C)CO)C(=O)c2cc(C#CCN(C)C)cnc2O[C@H]1CN(C)C	-6.0	i
C[C@@H]1CCCCO[C@@H](CN(C)C(=O)Cc2ccccc2)[C@@H](C)CN([C@@H](C)CO)C(=O)c2cc(NC(=O)c3ccccc3)ccc2O1	-2.2	i
CN1C(=O)c2cc(NC(=O)C3CCC3)ccc2OC[C@H]2O[C@H](CC(=O)NCC3CCCCC3)CC[C@H]21	0.8	i
Cn1cnc(S(=O)(=O)N2CC[C@H]3[C@H](CO)Nc4ccc(-c5ccccc5)cc4[C@H]32)c1	6.3	i
COc1cccc(C=NNC(=S)NC2CC3CCC2C3)c1O (stereo not given)	1.3	i
(further entries)
SMILES	MLL AF4-AF9 inh	FGF22 binding
Cc1ccccc1-c1cnc2c(c1)C(=O)N([C@@H](C)CO)C[C@@H](C)[C@@H](CN(C)C(=O)c1cccnc1)O2	0.0	i
C[C@H]1CN([C@@H](C)CO)C(=O)Cc2cc(NC(=O)Cc3cn(C)c4ccccc34)ccc2O[C@H]1CN(C)C(=O)Nc1ccccc1	0.0	i
CCCNC(=O)C[C@@H]1C[C@H]2c3cc(NS(=O)(=O)c4ccc(F)cc4)ccc3O[C@H]2[C@H](CO)O1	-0.9	i
COc1ccc(S(=O)(=O)N(C)C[C@@H]2Oc3ccc(NC(=O)Nc4ccc(C(F)(F)F)cc4)cc3CC(=O)N([C@H](C)CO)C[C@H]2C)cc1	-1.4	i
C[C@@H]1CN([C@H](C)CO)C(=O)c2cc(/C=C/c3ccccc3)cnc2O[C@H]1CN(C)C(=O)Nc1ccc(C(F)(F)F)cc1	1.2	i
N#C[C@H]1[C@@H](c2ccccc2C2=CCCCC2)[C@H](CO)N1C(=O)c1cccc(F)c1	-1.9	i
O=C(C1CCOCC1)N1CC[C@H]2[C@H](CO)Nc3ccc(-c4ccc(F)cc4)cc3[C@H]21	13	i
COc1ccc(C#Cc2ccc([C@@H]3[C@@H](CO)N4CCCCN(S(=O)(=O)c5cn(C)cn5)C[C@H]34)cc2)cc1	1.3	i
Cc1ccccc1S(=O)(=O)N1CC[C@@H]2[C@H](CO)Nc3ccc(-c4cccc(F)c4)cc3[C@@H]21	3.1	i
COCC#Cc1ccc2c(c1)O[C@H](CN(C)C(=O)C1CCC1)[C@H](C)CN([C@@H](C)CO)S2(=O)=O	-2.8	i
C[C@H]1CN([C@@H](C)CO)C(=O)c2cccc(NS(=O)(=O)c3ccc(F)cc3)c2O[C@@H]1CN(C)Cc1ccc(C(=O)O)cc1	-1.5	i
O=C(c1ccncc1)N1CC2(C1)[C@H](c1ccccc1)[C@H](CO)N2C(=O)c1ccncc1	-1.0	i
C[C@@H](NC(=O)C[C@H]1C[C@@H]2c3cc(N(C)C)ccc3O[C@@H]2[C@H](CO)O1)c1ccccc1	1.2	i
COc1ccccc1CN(C)C[C@@H]1OCc2ccccc2-c2ccccc2C(=O)N([C@@H](C)CO)C[C@@H]1C	-5.3	i
CO[C@H]1CN(C)C(=O)c2cc(NC(=O)c3nc4ccccc4s3)ccc2OC[C@@H](C)N(Cc2cncnc2)C[C@@H]1C	-8.3	i
Cc1cccc(S(=O)(=O)N2C[C@H](O)COC[C@H]3O[C@@H](CC(=O)NCc4ccc5c(c4)OCO5)CC[C@@H]32)c1	-0.4	i
CO[C@H]1CN(C)C(=O)c2ccc(NC(C)=O)cc2OC[C@H](C)N(Cc2nccs2)C[C@H]1C	6.9	i
O=C(c1ccccn1)N1C[C@@H]2[C@H](c3ccccc31)[C@@H](CO)N2C(=O)C1CCOCC1	-1.5	i
C/C=C/c1ccc([C@@H]2[C@H](CO)N3CCCCN(C(=O)Nc4ccccc4F)C[C@@H]23)cc1	2.0	i
C[C@@H]1CN([C@@H](C)CO)C(=O)c2cc(NS(=O)(=O)c3ccc(F)cc3)ccc2O[C@@H](C)CCCCO[C@H]1CN(C)Cc1ccncc1	2.7	i
C[C@@H]1CN([C@H](C)CO)C(=O)c2cccc(NC(=O)C3CCCCC3)c2O[C@@H]1CN(C)Cc1ccc(Cl)c(Cl)c1	1.3	i
CN(C)C(=O)c1ccc(-c2ccc3c(c2)[C@@H]2[C@@H](CCN2C(=O)Cc2ccccn2)[C@@H](CO)N3C)cc1	?	i
CO[C@H]1CN(C)C(=O)c2cc(NC(=O)c3nc4ccccc4s3)ccc2OC[C@H](C)N(Cc2ccncc2)C[C@H]1C	5.8	i
CN1CCN(C(=O)C[C@@H]2C[C@@H]3c4cc(NC(=O)Cc5ccncc5)ccc4O[C@@H]3[C@@H](CO)O2)CC1	0.5	i
C[C@@H]1CN([C@@H](C)CO)S(=O)(=O)c2ccc(C#Cc3ccccc3)cc2O[C@@H]1CN(C)C(=O)Nc1ccccc1	-0.2	i

As a working copy, ten of the compounds above.
SMILES	MLL AF4-AF9 inh	FGF22 binding
C/C=C/c1ccc([C@H]2[C@@H](CO)N(Cc3cccc(F)c3)C23CN(C(=O)CC)C3)cc1	3.0	i
CN1C(=O)c2cc(NC(=O)c3cccs3)ccc2OC[C@H]2O[C@H](CC(=O)N3CCCCC3)CC[C@H]21	-0.9	i
C[C@@H]1CN([C@@H](C)CO)C(=O)c2cc(C#CCN(C)C)cnc2O[C@H]1CN(C)C	-6.0	i
C[C@@H]1CCCCO[C@@H](CN(C)C(=O)Cc2ccccc2)[C@@H](C)CN([C@@H](C)CO)C(=O)c2cc(NC(=O)c3ccccc3)ccc2O1	-2.2	i
CN1C(=O)c2cc(NC(=O)C3CCC3)ccc2OC[C@H]2O[C@H](CC(=O)NCC3CCCCC3)CC[C@H]21	0.8	i
Cn1cnc(S(=O)(=O)N2CC[C@H]3[C@H](CO)Nc4ccc(-c5ccccc5)cc4[C@H]32)c1	6.3	i
COc1cccc(C=NNC(=S)NC2CC3CCC2C3)c1O (stereo not given)	1.3	i
Cc1ccccc1-c1cnc2c(c1)C(=O)N([C@@H](C)CO)C[C@@H](C)[C@@H](CN(C)C(=O)c1cccnc1)O2	0.0	i
C[C@H]1CN([C@@H](C)CO)C(=O)Cc2cc(NC(=O)Cc3cn(C)c4ccccc34)ccc2O[C@H]1CN(C)C(=O)Nc1ccccc1	0.0	i
CCCNC(=O)C[C@@H]1C[C@H]2c3cc(NS(=O)(=O)c4ccc(F)cc4)ccc3O[C@H]2[C@H](CO)O1	-0.9	i

Later entries:
SMILES	MLL AF4-AF9 inh	FGF22 binding
C/C=C/c1ccc([C@H]2[C@H](CO)N(C(C)=O)[C@H]2CNC(=O)CC2CC2)cc1	6.8	i
CC(C)[C@@H]1COCn2nncc2CCCC(=O)N1	-2.6	i
C[C@@H]1CN([C@H](C)CO)S(=O)(=O)c2ccc(-c3ccncc3)cc2O[C@@H]1CN(C)Cc1ccccn1	1.4	i
C#CCN1[C@H](/C=C/C2CC2)[C@H](Cc2ccccc2)OC(=O)[C@@H]1Cc1ccccc1	0.4	i
C[C@H](CO)N1C[C@H](C)[C@H](CN(C)C(=O)Nc2cccc3ccccc23)Oc2ccc(NS(=O)(=O)c3cn(C)cn3)cc2C1=O	-0.8	i
COc1ccc(CN(C)C[C@@H]2Oc3c(NC(=O)C4CC4)cccc3C(=O)N([C@H](C)CO)C[C@H]2C)cc1	-0.1	i
C/C=C/c1cnc2c(c1)C(=O)N([C@@H](C)CO)C[C@@H](C)[C@H](CN(C)S(=O)(=O)c1ccc(C)cc1)O2	-2.5	i
COc1cccc(S(=O)(=O)N[C@@H]2C=C[C@H](CC(=O)NC3CCC3)O[C@H]2CO)c1	-1.6	i
C[C@H](NC(=O)C[C@H]1C[C@H]2c3cc(NC(=O)c4cccnc4)ccc3O[C@H]2[C@H](CO)O1)c1ccccc1	-2.4	i
CCS(=O)(=O)N1CC2(CN(C(=O)Nc3c(C)noc3C)[C@@H](CO)c3c2c2ccc(OC)cc2n3C)C1	-0.9	i
O=C(Nc1ccc2c(c1)OCO2)N[C@H]1CC[C@H](CCNC(=O)C2CCCC2)O[C@H]1CO	2.2	i
C=CCNC(=O)[C@@H]1[C@H]2C(=O)O[C@H](c3ccccc3)[C@H](c3ccccc3)N2[C@H](c2ccccc2OCCO)[C@@]12C(=O)Nc1ccc(C#Cc3ccc(OC)cc3)cc12	0.4	i
C[C@H]1CN([C@@H](C)CO)C(=O)CCCn2cc(nn2)CO[C@H]1CN(C)C(=O)OCc1ccccc1	0.2	i
CO[C@@H]1CN(C)C(=O)c2ccc(NC(C)=O)cc2OC[C@@H](C)N(Cc2cc(F)ccc2F)C[C@@H]1C	3.8	i
C[C@@H]1CN([C@H](C)CO)C(=O)c2cc(C#CC3(O)CCCC3)cnc2O[C@@H]1CN(C)C(=O)Cc1ccncc1	-2.1	i
C[C@@H]1CN([C@@H](C)CO)C(=O)c2cccc(NS(=O)(=O)c3cn(C)cn3)c2O[C@@H]1CN(C)C	0.2	i
C[C@H](CO)N1C[C@H](C)[C@@H](CN(C)C(=O)Nc2cc(F)ccc2F)Oc2cc(-c3ccc(C#N)cc3)ccc2S1(=O)=O	-17	i
C[C@@H]1CN([C@@H](C)CO)C(=O)Cc2cc(NS(=O)(=O)c3cccs3)ccc2O[C@H]1CN(C)S(=O)(=O)c1ccc(Cl)cc1	0.8	i
O=S(=O)(c1ccccc1F)N1CC[C@@H]2[C@@H](CO)Nc3ccc(-c4ccccc4F)cc3[C@@H]21	0.1	i
CO[C@H]1CN(C)C(=O)c2cc(NS(=O)(=O)c3cn(C)cn3)ccc2OC[C@H](C)NC[C@H]1C	-3.5	i
CO[C@H]1CN(C)C(=O)c2cc(NC(C)=O)ccc2OC[C@H](C)N(C(=O)C2CCC2)C[C@@H]1C	-0.9	i
C[C@@H]1CN([C@@H](C)CO)S(=O)(=O)c2ccc(-c3ccccc3F)cc2O[C@H]1CN(C)Cc1ccncc1	8.8	i
COc1ccc(-c2ccc3c(c2)O[C@@H](CN(C)C(C)=O)[C@H](C)CN([C@@H](C)CO)S3(=O)=O)cc1	-0.7	i
C[C@H](CO)N1C[C@H](C)[C@H](CN(C)C(=O)Nc2ccc3c(c2)OCO3)OCCCC[C@H](C)Oc2ccc(NS(=O)(=O)c3ccc(Cl)cc3)cc2C1=O	-11	i
C[C@@H]1CCCCO[C@H](CN(C)C(=O)c2ccncc2)[C@@H](C)CN([C@H](C)CO)C(=O)c2cc(NC(=O)Cc3ccccc3)ccc2O1	-2.2	i
CCCC#Cc1ccc([C@@H]2[C@@H](CO)N(C(=O)C3CCCCC3)[C@H]2C#N)cc1	-0.2	i
CCC(=O)N(C)C[C@H]1Oc2cc(C#CC3(O)CCCC3)ccc2S(=O)(=O)N([C@@H](C)CO)C[C@@H]1C	0.8	i
C[C@H](CO)N1C[C@H](C)[C@H](CN(C)S(=O)(=O)c2ccc(Cl)cc2)Oc2ccc(NS(C)(=O)=O)cc2CC1=O	-1.1	i
